RGS16-Gao – modulators of RGS16 binding to Galphao, primary screen, biochemical, human proteins, multiplexed bead flow cytometry | Regulator of G-protein signaling 16 (Homo sapiens) + Guanine nucleotide-binding protein … | bead-based flow cytometry RGS16-Galphao binding, fluorescence; actives lie on both sides | binding response (% of control), % at 10 µM | 220,000 tested, 0.38% active | AID 1441, 2008;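 active means below 25% or above 175%, edge rows of some plates excepted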;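 further: Galphao activated by GDP with aluminum fluoride before binding; 100% = wells without compound and 0% = beads without RGS; some results beyond the cut were filed as inactive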
Target sequence (O15492 whole entry, looked up): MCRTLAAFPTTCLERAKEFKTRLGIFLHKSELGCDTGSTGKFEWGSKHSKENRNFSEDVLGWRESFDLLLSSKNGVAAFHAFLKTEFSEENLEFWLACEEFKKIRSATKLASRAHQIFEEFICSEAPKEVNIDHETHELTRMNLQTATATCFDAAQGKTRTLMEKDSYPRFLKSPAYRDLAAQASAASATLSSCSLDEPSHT
Target sequence (P09471 whole entry, looked up): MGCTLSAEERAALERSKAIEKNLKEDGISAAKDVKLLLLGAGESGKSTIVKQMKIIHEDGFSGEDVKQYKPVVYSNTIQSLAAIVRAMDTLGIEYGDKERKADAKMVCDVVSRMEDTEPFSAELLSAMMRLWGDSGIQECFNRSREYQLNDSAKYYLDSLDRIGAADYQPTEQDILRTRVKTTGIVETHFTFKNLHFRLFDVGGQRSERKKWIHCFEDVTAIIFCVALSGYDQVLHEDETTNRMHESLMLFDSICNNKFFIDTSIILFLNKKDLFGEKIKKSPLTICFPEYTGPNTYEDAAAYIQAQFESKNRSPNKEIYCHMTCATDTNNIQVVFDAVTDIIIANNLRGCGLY
PKD1 inh – inhibitors of human PKD1 kinase, biochemical, fluorescence polarization | PKD1 kinase fluorescence polarization assay | inhibition, %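 (about 10 µM by stock and volumes)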 | 200,000 tested, 0.056% active | AID 797, 2007;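 active means inhibition of 50% or more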;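 further: controls were vehicle for no effect and a reference inhibitor for full effect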
HSV replic up – enhancers of HSV replication in host cells, fold increase, host cell viability; HSV replication augmentation in cells; maximum fold increase; 220,000 tested, 0.005% active;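 active means peak rise of 1.5-fold or more in the series; inconclusive means self-fluorescent or not available for retest; tested in PC3 cells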;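 further: first round at 10 µM; read as green reporter fluorescence; hits show the peak of a series up to 25 µM; 1 = signal of infected wells without compound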
Insulin prom inh – inhibitors of insulin promoter-driven GFP, primary screen, imaging, TRM-6 cells (human fetal islet line), eGFP reporter, cell count; reporter expression induced with tamoxifen; inhibition, % at 2 µM; 130,000 tested, 0.9% active; AID 1273, 2008;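 active means inhibition above the mean plus 3 SD, with well images judged a real hit on visual review, cut at about 60% in these data, passing the limit was not always enough; inconclusive means inhibition over the cutoff but images rejected on review; inactive means inhibition not above the cutoff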
GALR2 ag – GALR2 receptor agonists, primary screen, cell-based. Galanin receptor type 2 (Homo sapiens), O43603. GALR2-expressing cells, agonist activation read-out. activation, %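 (tested at 5 µM)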. 140,000 tested, 0.48% active. AID 803, 2007;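 active means above mean plus 3 SD of all compounds, about 5% in these data, not always enough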;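 further: 0% = vehicle buffer wells and 100% = reference agonist at full effect; tested in CHO reporter cells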
Target sequence (O43603 whole entry, looked up): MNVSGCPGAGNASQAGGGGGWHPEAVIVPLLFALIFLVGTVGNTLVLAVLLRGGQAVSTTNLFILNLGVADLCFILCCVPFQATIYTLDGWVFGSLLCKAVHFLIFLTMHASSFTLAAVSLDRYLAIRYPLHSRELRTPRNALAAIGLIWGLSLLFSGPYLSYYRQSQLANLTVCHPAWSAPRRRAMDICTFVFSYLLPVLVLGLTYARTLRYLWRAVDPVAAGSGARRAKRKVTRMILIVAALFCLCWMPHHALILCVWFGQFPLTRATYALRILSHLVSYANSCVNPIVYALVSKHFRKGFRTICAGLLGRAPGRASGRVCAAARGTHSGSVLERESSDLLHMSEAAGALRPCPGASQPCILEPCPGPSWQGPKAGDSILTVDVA
Insulin prom inh cell count – further read-out of Insulin prom inh, marked with its call; normalized cell count, %; measured here: cell count, toxicity; reference of the scale not given here;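 cells exposed to compound for 48 h; stained nuclei by imaging scaled within each plate; lower means fewer cells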
HSV replic up primary fold – further read-out of HSV replic up, marked with its call; fold increase; compound at 10 µM; measured here: primary screen fold increase 10 uM; tested in PC3 cells;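 GFP signal in the first replicate; 1 = infected wells without compound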
The depositor's hits bear a star; i = inactive; u = inconclusive; x = no result given.

The line under a structure holds: RGS16-Gao, PKD1 inh, HSV replic up, HSV replic up primary fold, Insulin prom inh, Insulin prom inh cell count, GALR2 ag
- CCOC(=O)N1CCN(C(=O)CCCCCn2c(=S)[nH]c3ccsc3c2=O)CC1
  95, -2, i, 0.86, 0, 148, x
- O=C(CSc1nnc(COc2ccccc2Cl)o1)NC(=O)NCc1ccco1
  104, x, i, 1.2, x, x, x
- COc1ccc(-c2csc(Nc3ncccc3C)n2)cc1OC
  96, -3, i, 0.97, -36, 89, -0.1
- CCOC(=O)c1ccc(N2C(=O)CC(N3CCOCC3)C2=O)cc1 (configuration not stated)
  107, 1, i, 1.1, 70, 114, -2.1
- O=C(CNC(c1ccccc1)c1ccccc1)Nc1ccccc1-c1ccccc1
  106, -5, x, x, x, x, -0.5
- CCOC(=O)CC1C(=O)NCCN1C(=S)Nc1ccccc1 (configuration not stated)
  111, -1, i, 0.96, 41, 99, 0.0
- COc1ccc(-c2nc3n(n2)C(c2ccncc2)C(C(N)=O)=C(C)N3)cc1 (configuration not stated)
  104, -4, x, x, 0, 127, -1.2
- Cc1nn(C)cc1CNC(=O)c1cccc(F)c1
  93, -9, i, 1, 10, 99, -1.1
- Cn1c(COc2ccc(Br)cc2)nnc1SC1CCc2ccccc2C1=O (configuration not stated)
  100, -1, i, 1.1, 0, 147, -1.6
- Cc1cc(N2CCN(C)CC2)n2nc(-c3ccc(Cl)cc3)nc2n1
  100, x, i, 0.79, x, x, x
- COc1cccc(CSc2nnc(-c3ccco3)n2C)c1
  111, -7, i, 0.85, x, x, -2.3
- CCC(C)(C)n1nnnc1C(c1cc2cc(C)ccc2[nH]c1=O)N1CCCC1 (configuration not stated)
  96, -12, i, 0.96, -4, 96, -2.2
- Cc1c[n+]([O-])n(-c2ccc(C(=O)O)cc2)n1
  97, -6, i, 0.92, x, x, -1.0
- CCOC(=O)C1=C(C)NC(=O)NC1c1ccc(F)cc1 (configuration not stated)
  97, -6, i, 0.95, -11, 84, 0.3
- CC(=O)c1ccc(NC(=O)c2ccc(S(=O)(=O)N3CCCC3)cc2)cc1
  108, 0, i, 0.83, -1, 164, 0.8
- NNC(=O)c1sccc1OCc1ccc(Cl)cc1Cl
  104, -1, i, 1.1, x, x, x
- COC(=O)c1nc(-c2ccccc2)oc1N1CCOCC1
  95, 0, i, 1, x, x, x
- O=C(Nc1ccc(Cl)cc1)N1CCSc2ccccc21
  101, -7, i, 0.87, -33, 37, -1.3
- CC1CCCCC1NC(=O)Cn1cnc2ccccc2c1=O (configuration not stated)
  97, 4, i, 0.99, -56, 114, -2.2
- CC1(OC(=O)c2cccs2)C(=O)C=C2C=C3CCCN3C=C2C1=O (configuration not stated)
  93, x, i, 0.82, x, x, x

One compound at a time (already shown). Order of screens: RGS16-Gao, PKD1 inh, HSV replic up, HSV replic up primary fold, Insulin prom inh, Insulin prom inh cell count, GALR2 ag
Entry for O=C(CSc1nnc(COc2ccccc2Cl)o1)NC(=O)NCc1ccco1 : 104, x, i, 1.2, x, x, x
Entry for Cc1c[n+]([O-])n(-c2ccc(C(=O)O)cc2)n1 : 97, -6, i, 0.92, x, x, -1.0

Additional results follow:
The line under a structure holds: RGS16-Gao, PKD1 inh, HSV replic up, HSV replic up primary fold, Insulin prom inh, Insulin prom inh cell count, GALR2 ag
- N=C1C(c2nc3ccccc3s2)=C(O)CN1c1ccccc1
  100, -1, i, 0.83, -30, 97, x
- O=C(N/N=C/C(Br)=C/c1ccccc1)c1cccnc1
  90, x, i, 0.74, x, x, x
- COc1ccc(CCN(C(=O)COc2ccccc2)c2nc(-c3ccccc3)cs2)cc1OC
  96, -4, x, x, 23, 70, 0.2
- Cn1cc(CNCc2ccccc2OCC(O)CN2CCc3ccccc3C2)cn1 (configuration not stated)
  104, -4, i, 0.93, x, x, x
- CC1=C(C(=O)NCc2ccc(Cl)cc2)C2(CCC(C)CC2)OC1=O (configuration not stated)
  91, x, i, 0.97, x, x, x
- COc1cc(OC)c(OC)cc1/C=N/Nc1nc2ccccc2[nH]1
  92, x, i, 0.98, x, x, x
- COc1ccc([N+](=O)[O-])cc1NC(=O)Cc1ccccc1Cl
  107, 9, i, 0.91, 15, 113, -0.7
- O=C(COc1ccc([N+](=O)[O-])cc1Cl)N1CCOCC1
  89, x, i, 0.92, x, x, x
- Cc1ccc(S(=O)(=O)CCSc2nc(C)cc(C)c2C#N)cc1
  98, 2, i, 0.81, 46, 103, -1.7
- CCCCN(CCCC)S(=O)(=O)c1ccc(NC(=O)Cc2cccs2)cc1
  79, -6, i, 0.94, 39, 118, -1.6
- COC(=O)Nc1nn(-c2ccc(OC)cc2)c(=O)c(C#N)c1C
  103, 5, i, 1, -287, 58, x
- CCOc1ccc2nc(NC(=O)c3ccc(OCC4CCCO4)cc3)sc2c1 (configuration not stated)
  102, 1, i, 0.98, x, x, -1.0
- CCC(=O)NC(Nc1ncc(C)s1)(C(=O)OC)C(F)(F)F (configuration not stated)
  104, 5, i, 0.93, -203, 75, -0.9
- COc1ccc(CNC(N)=O)cc1OC
  102, -5, i, 0.72, 26, 74, -0.1
- COc1ccc(CNC(=O)c2csc(Cc3ccc(Cl)cc3)n2)cc1
  103, -2, x, x, 50, 107, -2.8
- CN(c1cccc(NC(=O)c2ccc(Cl)c(S(=O)(=O)Nc3ccccc3)c2)c1)S(C)(=O)=O
  51, 5, i, 0.88, 21, 105, -1.1
- CCOC(=O)N1CCN(c2c(-c3ccccc3)c3cc(Cl)ccc3[nH]c2=O)CC1
  104, -7, x, x, x, x, -0.8
- CCOC(=O)COc1c(Br)cc(C2NC(=O)NC(C)=C2C(C)=O)cc1OC (configuration not stated)
  31, 3, i, 1, -10, 115, -1.7
- Cc1cccc(OCC(=O)N(C)CCc2ccccn2)c1
  101, -1, i, 0.97, -357, 114, -1.7
- CC(C)OC(=O)C(C(=O)C(F)(F)F)c1cc(NS(=O)(=O)c2ccc3ccccc3c2)c2ccccc2c1O (configuration not stated)
  99, -9, u, x, x, x, -1.6

The list goes on.
The line under a structure holds: RGS16-Gao, PKD1 inh, HSV replic up, HSV replic up primary fold, Insulin prom inh, Insulin prom inh cell count, GALR2 ag
- COC(=O)c1nnn(-c2nonc2N)c1CSc1nc2ccccc2o1
  103, -7, i, 0.73, x, x, -3.9
- N#C/C(=C\c1cccn1-c1ccccc1)C(=O)NC1CCCCC1
  98, -10, i, 0.79, -33, 86, -0.2
- O=C(c1noc2c1CCCC2)N1CCc2c([nH]c3ccccc23)C1c1ccccn1 (configuration not stated)
  97, 0, i, 0.85, x, x, x
- CC(=O)Nc1nc2c(s1)C(=O)NCC(C)(C)C2
  102, x, i, 0.99, x, x, x
- COc1ccc(/C=C(/C#N)C(=O)NC2CCCCC2)cc1Br
  100, -8, i, 0.88, -3, 128, -2.1
- CN(C)C(=O)CSc1cnc2ccccc2n1
  107, 1, x, x, 38, 67, x
- CCN(C(=O)c1ccc(C)c(Br)c1)c1ccccc1
  101, 6, i, 1, x, x, x
- CC1CCN(C(=O)Cn2c(=O)oc3ccccc32)CC1
  104, 5, i, 0.93, -12, 94, -2.0
- O=C1c2ccccc2NC2(CCCCC2)N1N=C1CCCCC1
  104, 3, i, 0.94, 35, 73, -1.3
- Cc1ccc(C(NC(=O)N2CCCC2)C(Cl)(Cl)Cl)cc1F (configuration not stated)
  102, 3, i, 0.92, 67, 114, x
- CCNC(=O)CSc1nc2cc([N+](=O)[O-])ccc2n1-c1cccc(C(F)(F)F)c1
  100, 0, i, 0.96, x, x, 0.0
- Cc1ccc(-c2ccc(CCC(=O)O)n2Cc2ccco2)cc1
  96, 7, i, 1.1, 16, 180, -0.3
- Cc1ccc(C(=O)CCC2CCCCC2=O)cc1 (configuration not stated)
  107, -1, i, 0.96, 53, 143, 0.3
- COc1ccc(OC)c(NC(=O)c2cc3oc4ccccc4c3cc2O)c1
  107, x, i, 0.93, x, x, x
- Cc1c(NC(=O)CN2CCCC(C)C2)ccc2nsnc12 (configuration not stated)
  104, -4, i, 0.83, -27, 91, x
- COc1ccc(-c2nc(N)n(S(=O)(=O)c3ccc(C)cc3)n2)cc1
  101, 1, i, 0.97, -8, 92, x
- COc1ccc(/C=C2\C(=O)ON=C2c2cccc([N+](=O)[O-])c2)cc1
  73, -4, i, 1, 36, 75, x
- O=C(Nc1ccccc1)c1cc2ccccc2[nH]1
  14*, -1, x, x, -25, 82, -0.3
- COCCn1nnnc1CN(CCc1ccccc1)Cc1cc2cc(OC)ccc2[nH]c1=O
  x, 3, i, 1, -53, 114, 0.2
- Cc1ccc(NC(=S)NNC(=O)c2cccc([N+](=O)[O-])c2)cc1Cl
  100, x, i, 0.86, x, x, x

Continuation:
The line under a structure holds: RGS16-Gao, PKD1 inh, HSV replic up, HSV replic up primary fold, Insulin prom inh, Insulin prom inh cell count, GALR2 ag
- COc1ccc(CCC(=O)Nc2ccc(Br)cn2)cc1
  115, -2, i, 1, -68, 100, -1.1
- Cc1ccc(-n2c(N)c(C(=O)N3CCN(C)CC3)sc2=S)cc1
  41, -11, i, 0.92, -219, 81, 0.3
- Nc1nc(SCc2ccc(Br)cc2)[nH]c(=O)c1-c1ccccc1
  105, -6, i, 1, x, x, x
- COC(=O)C1(C)Cc2cc(OC(C)=O)c(OC(C)=O)cc2N1 (configuration not stated)
  97, x, i, 1, x, x, x
- Cc1cc(=O)[nH]c(N/N=C/c2ccc(C)o2)n1
  96, -4, i, 0.79, 7, 109, -2.2
- Cc1nn(Cc2ccc(F)cc2)c(C)c1NC(=O)c1noc2c1CCc1ccccc1-2
  109, -11, i, 0.85, x, x, -0.8
- CCc1ccc(Nc2nnc(SCC(=O)NCCN3C(=O)CSC3=O)s2)cc1
  106, -1, i, 0.99, x, x, 0.0
- CCOc1ccc(N=c2oc3cc(O)ccc3cc2C(=O)NCC2CCCO2)cc1 (configuration not stated)
  99, 1, i, 0.96, -79, 94, 6.9
- COc1ccc(N2CCN(CCNC(=O)c3nnc(Cc4c(F)cccc4Cl)o3)CC2)cc1
  97, -11, i, 0.85, x, x, -0.5
- NC(=S)Nc1cccc2cnccc12
  100, 13, i, 0.95, 23, 87, -4.4
- C/C(=N/NC(=O)CN1CCN(Cc2ccccc2Cl)CC1)c1ccco1
  100, x, i, 0.91, x, x, x

Of the compounds above, these have a Cl atom:
The line under a structure holds: RGS16-Gao, PKD1 inh, HSV replic up, HSV replic up primary fold, Insulin prom inh, Insulin prom inh cell count, GALR2 ag
- O=C(CSc1nnc(COc2ccccc2Cl)o1)NC(=O)NCc1ccco1
  104, x, i, 1.2, x, x, x
- Cc1cc(N2CCN(C)CC2)n2nc(-c3ccc(Cl)cc3)nc2n1
  100, x, i, 0.79, x, x, x
- NNC(=O)c1sccc1OCc1ccc(Cl)cc1Cl
  104, -1, i, 1.1, x, x, x
- O=C(Nc1ccc(Cl)cc1)N1CCSc2ccccc21
  101, -7, i, 0.87, -33, 37, -1.3
- CC1=C(C(=O)NCc2ccc(Cl)cc2)C2(CCC(C)CC2)OC1=O (configuration not stated)
  91, x, i, 0.97, x, x, x
- COc1ccc([N+](=O)[O-])cc1NC(=O)Cc1ccccc1Cl
  107, 9, i, 0.91, 15, 113, -0.7
- O=C(COc1ccc([N+](=O)[O-])cc1Cl)N1CCOCC1
  89, x, i, 0.92, x, x, x
- COc1ccc(CNC(=O)c2csc(Cc3ccc(Cl)cc3)n2)cc1
  103, -2, x, x, 50, 107, -2.8
- CN(c1cccc(NC(=O)c2ccc(Cl)c(S(=O)(=O)Nc3ccccc3)c2)c1)S(C)(=O)=O
  51, 5, i, 0.88, 21, 105, -1.1
- CCOC(=O)N1CCN(c2c(-c3ccccc3)c3cc(Cl)ccc3[nH]c2=O)CC1
  104, -7, x, x, x, x, -0.8
- Cc1ccc(C(NC(=O)N2CCCC2)C(Cl)(Cl)Cl)cc1F (configuration not stated)
  102, 3, i, 0.92, 67, 114, x
- Cc1ccc(NC(=S)NNC(=O)c2cccc([N+](=O)[O-])c2)cc1Cl
  100, x, i, 0.86, x, x, x
- COc1ccc(N2CCN(CCNC(=O)c3nnc(Cc4c(F)cccc4Cl)o3)CC2)cc1
  97, -11, i, 0.85, x, x, -0.5
- C/C(=N/NC(=O)CN1CCN(Cc2ccccc2Cl)CC1)c1ccco1
  100, x, i, 0.91, x, x, x

Compound activity as filed in PubChem BioAssay.
